Ecoli growth: blocks Escherichia coli growth | OD600, 23 h; stronger effect = lower value | OD600 absorbance (test concentration not listed) | 0.21% of 330,000 active | AID 1053175;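 active = OD600 absorbance below the run mean of sample wells minus 3.6 SD, in any replicate, cut at about 0.56 in these data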;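 note: stock transfer was 300 nL into about 60 µL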
LANA-H2B inh: blocks KSHV LANA binding to histone H2A/H2B | 0.6% of 320,000 active | Q9QR71 | cell-free LANA-H2A/H2B peptide, fluorescence polarization | inhibition, % (concentration not given with the values); in the data active = inhibition mostly above about 10%, no sharp cut-off; inactive = mostly below about 6.7%;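 note: stock transfer was 7.5 nL into about 10 µL; 0% = median of vehicle wells and 100% = median of positive control wells; one replicate is shown; the record names a cut of 25% in any replicate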
FGF22 binding: binders of recombinant human FGF22 by thermal shift; SYPRO orange fluorescence; percent of sucrose octasulfate shift, DMSO zero; calls only at 9.99 µM; 1.5% of 340,000 active; AID 651658;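 active = melting point raised past a set limit in the mean and every replicate; three in four hits are not shown here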
Target sequence (Q9HCT0 whole entry, looked up): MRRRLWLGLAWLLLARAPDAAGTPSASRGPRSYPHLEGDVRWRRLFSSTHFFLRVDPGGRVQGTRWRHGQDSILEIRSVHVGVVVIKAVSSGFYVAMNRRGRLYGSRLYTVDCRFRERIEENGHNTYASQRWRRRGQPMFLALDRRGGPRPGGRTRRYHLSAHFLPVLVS
UCH37 DUB inh: inhibitors of human deubiquitinating enzyme UCH37; AID 588478; inhibition, % (no concentration beside the values); 0.33% of 330,000 active; Q9Y5K5; purified proteasome/UCH37, Ub-AMC cleavage fluorescence;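 active = mean of two replicates above 20%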;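 note: 0% = compound-free wells with enzyme and 100% = wells lacking proteasome; stock transfer was 100 nL into about 20 µL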
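Schedule: 30 min plus 25 min, room temperature / Material: human UCH37 within purified proteasomes / Technique: AMC fluorescence intensity at 355/460 nm / Buffer or medium: pH 7.4 Tris-HCl (50 mM) with ovalbumin, ATP-MgCl2, DTT / Controls: wells without proteasome as full block, compound-free enzyme plus substrate as uninhibited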
ALR inh: inhibitors of human sulfhydryl oxidase ALR | inhibition, % (test concentration not listed) | purified ALR, DTT oxidation, H2O2 HRP-luminol luminescence | 3.8% of 290,000 active;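 active = mean and each replicate at 75% or more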;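 note: stock transfer was 7.5 nL into about 7.5 µL; 0% = neutral wells and 100% = wells with inactivated enzyme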
Target sequence (P55789 whole entry, looked up): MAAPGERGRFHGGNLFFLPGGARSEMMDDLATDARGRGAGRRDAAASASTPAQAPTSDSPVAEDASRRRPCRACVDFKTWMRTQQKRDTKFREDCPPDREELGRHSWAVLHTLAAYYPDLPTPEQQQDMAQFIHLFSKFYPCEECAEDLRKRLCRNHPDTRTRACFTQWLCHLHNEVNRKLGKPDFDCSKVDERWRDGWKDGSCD
B2AR ag: human beta-2 adrenergic receptor agonism by FAP; AID 504454; Am2.2-beta2AR cells, FAP receptor internalization, flow cytometry; reference of the scale not given here; response, % (concentration not given with the values); P07550; 0.43% of 340,000 active;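 active = response above a set limit, near 3 SD of response in nonfluorescent compounds, cut at about 42% in these data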;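 note: stock transfer was 100 nL into about 11 µL; a reference agonist was the positive control; negative values mostly stem from fluorescent compounds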
HNF4A DNA FP: change in binding of human HNF4 alpha to DNA. 0.3% of 360,000 active. AID 1224865. HNF4a-FITC DNA binding, fluorescence polarization, 1 h. P41235. activity change, % at 10 µM; in the data active = activity change above about 30%, passing the limit was not always enough;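 note: controls were the assay level and a saturating level of protein; the project sought stronger binding though the title names inhibitors; some compounds called inactive have numbers as strong as hits; positive values seem to mean higher polarization but the record does not say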
Target sequence (P41235 whole entry, looked up): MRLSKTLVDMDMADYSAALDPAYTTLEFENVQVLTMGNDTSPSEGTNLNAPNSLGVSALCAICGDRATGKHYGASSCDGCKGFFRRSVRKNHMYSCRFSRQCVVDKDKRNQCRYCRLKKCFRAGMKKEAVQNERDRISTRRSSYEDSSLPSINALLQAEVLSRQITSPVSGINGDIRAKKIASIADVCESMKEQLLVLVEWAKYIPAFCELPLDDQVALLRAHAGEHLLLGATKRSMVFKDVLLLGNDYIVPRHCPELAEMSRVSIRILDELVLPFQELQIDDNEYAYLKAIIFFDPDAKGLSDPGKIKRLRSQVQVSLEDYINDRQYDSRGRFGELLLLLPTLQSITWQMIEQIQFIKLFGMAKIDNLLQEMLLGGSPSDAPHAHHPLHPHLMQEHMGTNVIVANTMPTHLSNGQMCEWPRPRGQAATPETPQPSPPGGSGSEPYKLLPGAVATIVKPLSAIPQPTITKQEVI
The depositor's hits bear a star; i = inactive; nt = no result given. These rows are one share of the data (hit frequency here may not be typical).

Values in the order – Ecoli growth	LANA-H2B inh	FGF22 binding	UCH37 DUB inh	ALR inh	B2AR ag	HNF4A DNA FP
CCC(C)NC(=O)CSc1nc(-c2cccs2)cc(C(F)(F)F)n1 (stereo unspecified)
 : 0.66	0.7	nt	-3.7	-5	-24	-0.4
CC1CCCCN1C(=O)c1ccc(CS(=O)(=O)Cc2ccccc2)cc1 (stereo unspecified)
 : 0.69	0.9	i	-0.5	-2	1	1.8
CN(C)CCCNC(=O)/C(=C\C=C\c1ccccc1)NC(=O)c1ccc([N+](=O)[O-])cc1
 : 0.59	2.9	i	16	-24	-4	-3.4
CN(C)c1ccc(C(=O)OCC(=O)NCCC2=CCCCC2)cc1
 : 0.69	5.5	nt	7.0	22	-6	-2.6
C[C@@H]1CN([C@H](C)CO)C(=O)c2cc(NC(=O)Nc3ccc(F)cc3)ccc2O[C@H]1CN(C)C(=O)Nc1ccc(C(F)(F)F)cc1
 : 0.7	nt	nt	3.3	-6	1	-2.6
Cc1ccc(/C=N/NC(=O)CSc2nc3ccccc3n2Cc2ccccc2)o1
 : nt	-7.3	nt	nt	-9	6	-2.6
CCn1c(=N)n(CC(=O)OC)c2ccccc21
 : 0.67	i	nt	4.1	0	-6	1.4
CCCCn1c(N)c(N(CCC(C)C)C(=O)c2cc(-c3ccco3)nc3ccccc23)c(=O)[nH]c1=O
 : nt	-3.1	i	nt	9	-3	-11
COc1ccc2nc(C)cc(SCC(=O)OC(C)C)c2c1
 : 0.67	-2.4	i	-2.6	-24	9	2.7
COc1ccc2c(c1)CCc1c(C(=O)NCc3ccco3)noc1-2
 : 0.68	0.1	i	2.0	-24	0	-2.8
Cc1cccc(NC(=O)COC(=O)c2ccccc2-c2nc3ccccc3s2)c1C
 : 0.71	-2.9	i	2.4	3	-8	-2.2
Cc1ccc(NC(=O)C2CCCN2C(=O)c2cccs2)cc1C (stereo unspecified)
 : 0.67	1.9	i	-0.2	-1	-8	-2.0
COc1ccc(Cc2nnc(NC(=O)Cc3cccs3)s2)cc1OC
 : 0.68	-4.0	nt	1.6	-23	0	-8.2
COc1ccc(N2CCN(S(=O)(=O)c3cc(C)ccc3OC)CC2)cc1
 : 0.71	-6.2	i	1.6	49	-2	4.9
COc1ccccc1C(=O)NCC(=O)N1CCN(c2ncccn2)CC1
 : 0.67	-5.8	i	2.5	0	-2	2.3
N/C(=N\S(=O)(=O)c1ccccc1)c1ccc([N+](=O)[O-])cc1
 : nt	0.3	nt	nt	-13	-4	-1.1
COc1ccc(OC)c(NC(=O)c2ccc(CN3CCOCC3)cc2)c1
 : 0.7	-3.6	nt	1.3	-14	-12	3.1
Cc1ccccc1Oc1ccc(-c2nc(N)nc(N)n2)cc1
 : 0.67	-2.9	nt	0.3	4	5	3.9
CC(=O)CSc1ccc(-c2nc3cc(C)c(C)cc3[nH]2)cn1
 : 0.7	-1.8	i	-18	nt	21	1.5
COc1ccc(NC(=O)C2CCN(C(=O)[C@@H]3Cc4ccccc4CN3C(=O)OC(C)(C)C)CC2)cc1
 : 0.65	1.6	i	1.6	-48	5	-1.4
CC(/C=N\Nc1nnc2c(n1)[nH]c1c(C)cccc12)=C\c1ccco1
 : nt	-0.2	i	nt	nt	9	1.2
C/C(=N\Nc1ccc(Cl)c(C(=O)O)c1)c1ccccn1
 : nt	-0.2	i	nt	17	0	-1.0
CC(SCc1ccccc1)C(=O)Nc1ccccc1Br (stereo unspecified)
 : 0.72	-2.5	i	1.6	-2	-9	-0.1
CC(=O)Nc1cc(NC(=O)C2C3C=CC(C3)C2C(=O)O)ccc1Cl (stereo unspecified)
 : 0.71	-3.3	nt	2.7	-3	5	0.5
CCOC(=O)N1CCc2c(sc(NC(=O)CN3CCOCC3)c2C(=O)Nc2ccccc2)C1
 : 0.7	-1.8	i	4.3	4	5	6.3
CC1CC(C(F)(F)C(F)(F)F)n2nc(C(=O)O)cc2N1 (stereo unspecified)
 : 0.72	7.9	nt	-0.5	-7	0	0.9
Cc1ccc(NC(=O)c2ccc3ccccc3n2)nc1
 : 0.7	0.6	nt	2.8	-5	-6	-0.5
Cc1ccc(SCC(=O)Nc2ccc(N3CCOCC3)cc2)c(C)c1
 : 0.69	4.0	i	0.4	4	-1	-2.7
CC(=O)NCCn1c(SCC#N)nc2ccccc2c1=O
 : 0.67	1.1	nt	2.7	-4	3	-3.4
CCn1ncc(CN2CCC(Oc3ccc(C(=O)N4CCCC4)cc3)CC2)c1C
 : 0.67	-0.2	i	0.1	-2	-3	0.8

New compounds follow.
Values in the order – Ecoli growth	LANA-H2B inh	FGF22 binding	UCH37 DUB inh	ALR inh	B2AR ag	HNF4A DNA FP
Cc1cccc2sc(NS(C)(=O)=O)nc12
 : 0.63	-1.5	i	2.5	-7	3	-1.1
CC(C)c1ccc(CNc2nc3nc4c(c(=O)n3[nH]2)CCC4)cc1
 : 0.69	5.8	i	3.0	-5	-9	-1.1
CC(=O)Nc1ccc(S(=O)(=O)Nc2ccccc2C(=O)N2CCCCC2)cc1
 : 0.65	-0.6	i	2.5	3	-7	-1.5
Cc1cccc(OCc2nc(-c3ccc(-n4cccc4)cc3)no2)c1
 : 0.77	nt	i	1.8	nt	6	-4.2
Cc1ccc(-c2nnc(N3CCN(C(=O)CN4CCOCC4)CC3)c3ccccc23)cc1
 : 0.73	-7.6	nt	5.7	-1	21	0.1
CCOc1cc(N2CCOCC2)c(OCC)cc1NC(=O)COC(=O)c1cc(C)cc(C)c1
 : 0.71	3.6	i	5.3	nt	-7	-0.1
Cc1oc(C(C)(C)C)cc1C(=O)N1CCN(c2ncccc2C(F)(F)F)CC1
 : 0.68	2.2	i	3.7	-4	5	-4.6
COc1ccc(-n2c(Cc3cc(=O)[nH]c(=O)[nH]3)nnc2SCC(=O)Nc2ccccc2)cc1
 : 0.67	3.4	i	0.6	25	2	-1.4
O=C(N/N=C/c1ccc(O)cc1)c1cc[n+](Cc2ccccc2)cc1
 : nt	6.0	nt	nt	99*	2	0.1
CC1CC(C)CN(S(=O)(=O)c2ccc(NN)nc2)C1 (stereo unspecified)
 : 0.72	3.1	i	4.2	nt	11	-2.5
O=C(Cc1ccc(NC(=O)C2CCCN(C(=O)CCc3ccccc3)C2)cc1)Nc1cccc(C(=O)N2CCCCC2)c1 (stereo unspecified)
 : 0.7	nt	i	4.3	nt	3	2.1
Cc1nonc1NC(=O)OC1CCCCC1
 : 0.64	-1.5	i	1.5	-16	-5	2.6
COc1cc(C(=O)OCC(=O)NC2CCS(=O)(=O)C2)c([N+](=O)[O-])cc1OC (stereo unspecified)
 : 0.66	-4.9	i	4.5	-4	4	1.9
Cc1ccc(CNc2ccc(Cl)cc2[N+](=O)[O-])cc1
 : 0.67	11	nt	3.8	8	-7	4.1
C/C(=N\Nc1ccccc1C)c1cccnc1
 : nt	-12	i	nt	53	0	-0.9
CCc1nnc(NC(=O)C2CCCN(c3nc(C)cc(C)n3)C2)s1 (stereo unspecified)
 : 0.7	-3.1	nt	-0.5	2	2	-1.5
Cc1onc(-c2c(Cl)cccc2Cl)c1C(=O)N=C(N)N1CC(C)OC(C)C1 (stereo unspecified)
 : 0.62	0.4	i	0.6	-2	0	2.9
COc1ccccc1NC(=O)C1C2C=CC(C2)C1C(=O)NCc1cccnc1 (stereo unspecified)
 : 0.67	-0.6	i	3.2	-2	-3	1.7
COc1cc(C(=O)N/C(=C\c2cn(C)c3ccccc23)C(=O)NCCCn2ccnc2)cc(OC)c1OC
 : 0.68	3.6	i	8.6	12	3	-0.6
Cc1ccc(C(=O)Nc2ccncc2)o1
 : 0.75	2.2	nt	3.4	0	-5	0.9
O=C(Nc1cccc(C(=O)Nc2cccc(Br)c2)c1)c1ccccc1
 : 0.68	3.1	i	0.8	2	3	0.8
CCCCNCCOCCOc1ccc(Cl)cc1Br
 : 0.63	3.7	i	2.4	-7	0	-0.4
CCOc1ccc(NC(=O)CN(C)C(=O)c2cc(S(=O)(=O)N(C)C)ccc2N2CCCC2)cc1OCC
 : nt	2.1	i	nt	nt	-9	3.4
CC(OC(=O)Cn1[nH]c(=O)c2ccccc2c1=O)C(=O)c1ccccc1 (stereo unspecified)
 : 0.69	2.8	i	1.7	-7	-8	1.9
COc1ccc(Br)cc1C(C[N+](=O)[O-])c1c(N)n(C)c(=O)n(C)c1=O (stereo unspecified)
 : 0.58	-4.6	i	3.0	37	5	-3.0
CCN1CCN(CCNC(=O)c2ccc(CS(=O)(=O)c3ccccc3C)o2)CC1
 : 0.73	-12	nt	0.5	2	-4	-0.3
CCCOc1c(Br)cc(C(=O)OCC(=O)NC2CC2)cc1OC
 : 0.69	0.1	i	2.0	-2	-3	-0.7
COc1ccc(C2C(=O)N(C3CCCCC3)CC(=O)N2Cc2ccco2)cc1 (stereo unspecified)
 : 0.7	1.5	i	2.8	1	40	4.9
COCc1cc(=O)[nH]c(SCC(=O)Nc2ccccc2)n1
 : 0.67	-3.9	nt	2.1	-21	-4	-5.4
O=C(C1CCCC1)N1CCN(S(=O)(=O)c2cccc(Cl)c2Cl)CC1
 : 0.65	-0.7	i	3.1	-11	-14	-0.2

Further results follow.
Values in the order – Ecoli growth	LANA-H2B inh	FGF22 binding	UCH37 DUB inh	ALR inh	B2AR ag	HNF4A DNA FP
CCC(Sc1nc2cc(OC)c(OC)cc2c(=O)n1CCc1ccc(OC)c(OC)c1)C(=O)NCCOC (stereo unspecified)
 : 0.71	2.3	i	4.7	-4	4	-0.2
Cc1ccc(C(=O)N2CCN(C(=O)C3CCCO3)CC2)cc1 (stereo unspecified)
 : 0.68	-5.4	i	-0.7	0	-3	3.9
O=C(COC(=O)/C=C/c1cc(Br)ccc1F)Nc1ccc2[nH]c(=O)[nH]c2c1
 : 0.65	-2.6	nt	3.0	-4	-1	3.4
Cc1csc(CNc2ncnc3ccc(-c4ccc5c(c4)OCO5)cc23)c1
 : 0.67	5.6	i	-12	-1	2	2.3
Cc1ccc(CNC(=S)N2CCOCC2)cc1
 : 0.71	-7.4	i	5.2	nt	-2	1.3
Cc1csc(NC(=O)C2CC(=O)N(c3ccc(C)c(C)c3)C2)n1 (stereo unspecified)
 : 0.62	-0.8	i	2.1	nt	0	-1.8
CC(=O)NC(Cc1ccc(C)cc1)C(=O)NC1CCN(C(=O)c2cnccn2)CC1 (stereo unspecified)
 : 0.66	-4.6	nt	-0.8	-1	5	1.0
CC(O)(C#CCN1CCCCC1)c1ccccc1 (stereo unspecified)
 : 0.65	-2.0	nt	0.4	-1	2	0.6
CCOc1ccc(CNC(=O)CCCN2C(=O)C(c3ccccc3)Oc3cccnc32)cc1 (stereo unspecified)
 : 0.68	9.5	i	1.3	-4	-10	3.1
O=C(CCCCCN1C(=O)c2ccccc2C1=O)NCCc1nc2ccccc2[nH]1
 : 0.77	-12	nt	1.0	-12	15	-4.1
COC/C=C/C1=CC2=CC(=O)C(C)(OC(=O)c3cnc4ccccc4n3)C(=O)C2=CN1CCN1CCOCC1 (stereo unspecified)
 : nt	18*	i	4.9	-21	-3	0.9
CCn1cc(S(=O)(=O)c2ccc(Cl)cc2)c(=O)c2cc(OC)ccc21
 : 0.69	1.7	i	-7.0	-14	-3	4.0
CCOC(=O)c1c(NC(=O)CN2C(=O)C(=O)N(C(C)C)C2=O)sc(C)c1CC
 : 0.7	-1.3	i	5.8	nt	3	0.5
COc1ccccc1C(=O)NC(=S)NC12CC3CC(CC(C3)C1)C2
 : 0.73	1.3	i	0.9	nt	13	2.5
O=C(Nc1cccc(Cl)c1)C1CCCCC1
 : 0.65	0.1	i	0.3	nt	0	4.2
COc1ccc(S(=O)(=O)N(CCC(=O)O)Cc2ccccc2)cc1
 : nt	-2.1	i	nt	-2	0	0.9
Cc1ccc2[nH]c3nc(N/N=C/c4cccc(O)c4)nnc3c2c1
 : nt	0.5	i	nt	-3	0	-0.3
CCOc1cccc2cc(C(N)=O)c(=N)oc12
 : 0.64	nt	i	-2.5	nt	-2	0.7

Single records, as listed above. Values in the order: Ecoli growth	LANA-H2B inh	FGF22 binding	UCH37 DUB inh	ALR inh	B2AR ag	HNF4A DNA FP
Cc1ccc2[nH]c3nc(N/N=C/c4cccc(O)c4)nnc3c2c1 in the list: nt	0.5	i	nt	-3	0	-0.3
COc1ccc(S(=O)(=O)N(CCC(=O)O)Cc2ccccc2)cc1 in the list: nt	-2.1	i	nt	-2	0	0.9

Bioassay records deposited in PubChem by several laboratories.
